High-throughput results as filed in PubChem BioAssay.
NOMO-1 viab: NOMO-1 AML cell viability reduction, primary screen, STK33 inhibitor project, CellTiter-Glo luminescence | NOMO-1 AML viability, 72 h | 37,000 compounds, 7.5% hits | inhibition, % (test concentration not listed);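 active = most replicates above 80%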;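 note: wells of about 30 µL received 25 nL stock; 0% = median of vehicle wells and 100% = reference inhibitor level; the first replicate is given; inactives centre near 10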
Numbers without * were called inactive. These rows are one share of the data; the hit share may differ from the screen's.

SMILES	NOMO-1 viab
C[C@@H]1CN([C@H](C)CO)C(=O)c2cccc(NC(=O)Nc3ccccc3)c2O[C@@H]1CN(C)C(=O)Nc1ccccc1	0
CC(C)NC(=O)N(C)C[C@@H]1Oc2ccc(NC(=O)Nc3ccc(F)cc3)cc2C(=O)N([C@@H](C)CO)C[C@H]1C	11
COc1ccc(S(=O)(=O)Nc2cccc3c2O[C@H](CN(C)CC2CCCCC2)[C@@H](C)CN([C@H](C)CO)C3=O)cc1	7
C[C@@H]1CN([C@H](C)CO)C(=O)Cc2cc(NS(=O)(=O)c3cccs3)ccc2O[C@H]1CN(C)Cc1ccc(-c2ccccc2)cc1	49
COc1cc(C)c2c(=O)cc(-c3ccccc3)oc2c1	-12
C[C@H]1CN([C@@H](C)CO)C(=O)Cc2cc(NC(=O)CCN3CCOCC3)ccc2O[C@H]1CN(C)Cc1ccc(Cl)c(Cl)c1	9
CC(=O)c1cccc(NC(=O)C2CCCN(S(=O)(=O)c3ccc(F)cc3)C2)c1 (configuration not stated)	1
COc1ccc(NC(=O)N(C)C[C@@H]2Oc3ccc(NS(=O)(=O)c4ccccc4)cc3CC(=O)N([C@@H](C)CO)C[C@@H]2C)cc1	13
C[C@H]1CN([C@@H](C)CO)C(=O)Cc2cc(N(C)C)ccc2O[C@H]1CN(C)C(=O)Nc1ccc(C(F)(F)F)cc1	-19
COc1ccc(C(C)C)cc1S(=O)(=O)Nc1cccnc1	2
CCOC(=O)CSc1cc(C)nc(N)n1	28
C=C(C)C1=C[C@@]2(C)C(=CC1=O)CC[C@@H](O)[C@@H]2C	27
C[C@H](CO)N1C[C@H](C)[C@H](CN(C)Cc2ccc(C(F)(F)F)cc2)Oc2ccc(NC(=O)C3CC3)cc2C1=O	-8
C[C@H](CO)N1C[C@H](C)[C@H](CN(C)C(=O)Nc2ccc(C(F)(F)F)cc2)Oc2ccc(NS(=O)(=O)c3ccc(F)cc3)cc2C1=O	3
C[C@H]1CN([C@@H](C)CO)C(=O)Cc2cc(NC(=O)CCN3CCOCC3)ccc2O[C@H]1CN(C)S(=O)(=O)c1cn(C)cn1	-15

Rewritten bar-delimited: entries from further up.
compound | NOMO-1 viab
C[C@H]1CN([C@@H](C)CO)C(=O)Cc2cc(NC(=O)CCN3CCOCC3)ccc2O[C@H]1CN(C)Cc1ccc(Cl)c(Cl)c1 | 9
CC(=O)c1cccc(NC(=O)C2CCCN(S(=O)(=O)c3ccc(F)cc3)C2)c1 (configuration not stated) | 1
COc1ccc(NC(=O)N(C)C[C@@H]2Oc3ccc(NS(=O)(=O)c4ccccc4)cc3CC(=O)N([C@@H](C)CO)C[C@@H]2C)cc1 | 13
C[C@H]1CN([C@@H](C)CO)C(=O)Cc2cc(N(C)C)ccc2O[C@H]1CN(C)C(=O)Nc1ccc(C(F)(F)F)cc1 | -19
COc1ccc(C(C)C)cc1S(=O)(=O)Nc1cccnc1 | 2
CCOC(=O)CSc1cc(C)nc(N)n1 | 28

(list continues)
SMILES	NOMO-1 viab
Cc1noc(C)c1NC(=O)Nc1cccc2c1O[C@@H](CN(C)Cc1ccncc1)[C@H](C)CN([C@H](C)CO)C2=O	-1
COC(=O)c1cccc(NC(=O)COc2cc(C)cc(C)c2)c1	-26
C[C@H]1CN([C@@H](C)CO)C(=O)c2cc(NC(=O)Cc3ccccc3)ccc2O[C@H]1CN(C)C(=O)Nc1ccc(C(F)(F)F)cc1	11
Cc1cc(C(=O)Nc2cccc3c2O[C@@H](CN(C)CC2CC2)[C@@H](C)CN([C@H](C)CO)C3=O)n(C)n1	-4
COc1ccc(N(CC(=O)Nc2ccccc2Br)S(C)(=O)=O)cc1OC	3
C[C@@H]1CN([C@@H](C)CO)C(=O)c2cccc(NC(=O)NC3CCCCC3)c2O[C@H]1CN(C)Cc1ccc2c(c1)OCO2	72
COc1ccc(NC(=O)N(C)C[C@H]2Oc3c(NC(=O)c4ccncc4)cccc3C(=O)N([C@@H](C)CO)C[C@H]2C)cc1	4
CCOc1ccccc1N1CC(C(=O)Nc2ccc(C(=O)O)cc2)CC1=O (configuration not stated)	-19
C[C@H]1CN([C@@H](C)CO)C(=O)c2cccc(NC(=O)CCCCCC(=O)Nc3ccccc3N)c2O[C@H]1CN(C)S(C)(=O)=O	-1
COC(=O)c1ccccc1NC(=O)COc1ccc(C)cc1C	2
COc1ccc(NC(=O)Nc2ccc3c(c2)C(=O)N([C@H](C)CO)C[C@@H](C)[C@H](CN(C)C(=O)Nc2c(C)noc2C)O3)cc1	-9
CCOC(=O)c1sc(NC(=O)c2cc3ncc(Br)cn3n2)c(C(=O)OCC)c1C	-18
C[C@H]1CN([C@@H](C)CO)C(=O)Cc2cc(NS(=O)(=O)c3cn(C)cn3)ccc2O[C@H]1CN(C)Cc1ccc(C(=O)O)cc1	17
C[C@H]1CN([C@@H](C)CO)C(=O)c2cccc(NC(=O)Nc3ccc(C(F)(F)F)cc3)c2O[C@H]1CN(C)S(=O)(=O)c1ccc(Cl)cc1	60
C[C@@H]1CN([C@@H](C)CO)C(=O)c2cc(NC(=O)Cc3cn(C)c4ccccc34)ccc2O[C@H]1CN(C)Cc1ccc2c(c1)OCO2	36
C[C@@H]1CN([C@H](C)CO)C(=O)c2cccc(NC(=O)CCCCCC(=O)Nc3ccccc3N)c2O[C@@H]1CN(C)Cc1ccncc1	17
Cc1ccc(S(=O)(=O)N(C)C[C@@H]2Oc3ccc(NC(=O)NC(C)C)cc3C(=O)N([C@H](C)CO)C[C@@H]2C)cc1	23
Cc1cc(C)c(OCC(=O)Nc2ccccc2-c2nc3ccccc3s2)c(Br)c1	7
C[C@H](CO)N1C[C@H](C)[C@H](CN(C)S(=O)(=O)c2cccs2)Oc2ccc(NC(=O)Nc3ccc(C(F)(F)F)cc3)cc2C1=O	77
COc1ccc(CN(C)C[C@@H]2Oc3ccc(NC(=O)C4CCCCC4)cc3C(=O)N([C@H](C)CO)C[C@@H]2C)cc1	31
Cc1noc(C)c1NC(=O)Nc1ccc2c(c1)C(=O)N([C@@H](C)CO)C[C@@H](C)[C@H](CN(C)Cc1ccc(C(F)(F)F)cc1)O2	-6
CC(C)NC(=O)N(C)C[C@@H]1Oc2c(NC(=O)Nc3ccc(F)cc3)cccc2C(=O)N([C@H](C)CO)C[C@H]1C	-6
COc1ccc(CN(C)C[C@@H]2OCCCC[C@@H](C)Oc3ccc(NS(=O)(=O)c4ccc(C)cc4)cc3C(=O)N([C@H](C)CO)C[C@@H]2C)cc1	21
Cc1nc(SCC(=O)Nc2ccc3ccccc3c2)n[nH]1	-13
CC(C)NC(=O)Nc1ccc2c(c1)C(=O)N([C@H](C)CO)C[C@H](C)[C@H](CN(C)S(=O)(=O)c1cn(C)cn1)O2	-14
C[C@@H]1CN([C@H](C)CO)C(=O)c2cc(NC(=O)CCN3CCOCC3)ccc2O[C@H]1CN(C)Cc1ccc(Oc2ccccc2)cc1	6
C[C@@H]1CN([C@H](C)CO)C(=O)Cc2cc(NC(=O)c3ccncc3)ccc2O[C@H]1CN(C)S(=O)(=O)c1ccc(Cl)cc1	-14
Cc1nnc(SCC(=O)NCC2CCCO2)s1 (configuration not stated)	14
O=C(CCCN1C(=O)c2ccccc2C1=O)Nc1ccccc1Cl	0
C=C(C)Cn1c(SCc2nc3ccccc3[nH]2)nc2sc3c(c2c1=O)CCCC3	-11

Copied from the list:
NOMO-1 viab, C[C@H](CO)N1C[C@H](C)[C@H](CN(C)S(=O)(=O)c2cccs2)Oc2ccc(NC(=O)Nc3ccc(C(F)(F)F)cc3)cc2C1=O = 77
NOMO-1 viab, C[C@@H]1CN([C@H](C)CO)C(=O)c2cc(NC(=O)CCN3CCOCC3)ccc2O[C@H]1CN(C)Cc1ccc(Oc2ccccc2)cc1 = 6

Following part
SMILES	NOMO-1 viab
OC[C@H]1O[C@@H](OCCc2ccccc2)[C@H](O)[C@@H](O)[C@@H]1O	9
CCOC(=O)c1sc(NC(=O)c2cnccn2)c(C(=O)OC)c1C	-9
O=C(O)C1CCCN(CCC=C(c2ccccc2)c2ccccc2)C1 (configuration not stated)	11
COc1ccc2c(c1)c(C(=O)O)c(C)n2CCc1ccc(OC)c(OC)c1	10
COc1ccc(NC(=O)CCc2nc(-c3ccccc3)no2)cc1	-8
CC(C)NC(=O)N(C)C[C@H]1Oc2c(NC(=O)CCCCCC(=O)Nc3ccccc3N)cccc2C(=O)N([C@H](C)CO)C[C@@H]1C	2
COc1ccc(NC(=O)CSC2CC(=O)N(c3ccccc3)C2=O)cc1Cl (configuration not stated)	-4
Cc1cccc(NC(=O)c2ccccc2NC(=O)COc2ccccc2Cl)c1C	23
Cc1ccc(-c2nnc(Nc3ccc(C(=O)N(C)C)cc3)c3ccccc23)cc1S(N)(=O)=O	-12
C[C@H]1CN([C@@H](C)CO)C(=O)c2cc(NC(=O)Nc3ccc(C(F)(F)F)cc3)ccc2O[C@@H]1CN(C)C(=O)Nc1ccc(F)cc1	14
C[C@@H]1CN([C@H](C)CO)C(=O)c2cc(NS(=O)(=O)c3ccc(Cl)cc3)ccc2O[C@H]1CN(C)S(=O)(=O)c1cccs1	-2
COc1cc(O)c(C(C)=O)c(OC)c1	23
C[C@@H]1CN([C@@H](C)CO)C(=O)c2cc(NC(=O)Cn3cnnn3)ccc2O[C@H]1CN(C)C(=O)Nc1ccccc1	0
C[C@@H]1CN([C@@H](C)CO)C(=O)c2cccc(NC(=O)NC3CCCCC3)c2O[C@@H]1CN(C)Cc1ccc(C(F)(F)F)cc1	38
C[C@@H]1CN([C@H](C)CO)C(=O)c2cc(NC(=O)Nc3ccccc3)ccc2O[C@@H]1CN(C)S(C)(=O)=O	9
COC(=O)c1cc(OC)c(OC)cc1NC(=O)COc1ccc(Cl)cc1Br	56
C[C@@H]1CCCCO[C@H](CN(C)C(=O)Nc2cccc3ccccc23)[C@@H](C)CN([C@H](C)CO)C(=O)c2cc(NS(=O)(=O)c3cn(C)cn3)ccc2O1	-22
Cc1c(S(=O)(=O)c2ccc(Cl)cc2)csc1C(=O)Nc1ccc(F)cc1F	49
C[C@@H]1CN([C@@H](C)CO)C(=O)c2cccc(NC(=O)c3cnccn3)c2O[C@@H]1CN(C)C	-15
C[C@@H]1CCCCO[C@H](CN(C)C)[C@@H](C)CN([C@H](C)CO)C(=O)c2cc(NC(=O)Nc3ccc(F)cc3)ccc2O1	-10
Cc1ccccc1NC(=O)CSc1ncnc2scc(-c3ccc(Cl)cc3)c12	-5
O=C(CSc1nc(O)cc(=O)[nH]1)Nc1ccc(Br)cc1	6
COc1ccc(S(=O)(=O)Nc2ccc3c(c2)CC(=O)N([C@H](C)CO)C[C@@H](C)[C@@H](CN(C)S(=O)(=O)c2ccccc2)O3)cc1	2
CC(=O)O[C@@H]1O[C@@H]2CO[C@@H](c3ccccc3)O[C@H]2[C@H](OC(C)=O)[C@H]1OC(C)=O	18
C[C@H]1CN([C@@H](C)CO)C(=O)c2cc(NC(=O)Nc3cccc4ccccc34)ccc2O[C@H]1CN(C)C(=O)NC1CCCCC1	38
C[C@H]1CN([C@@H](C)CO)C(=O)c2cc(NC(=O)Cc3cn(C)c4ccccc34)ccc2O[C@H]1CN(C)C(=O)Nc1ccc2c(c1)OCO2	10
CCc1ccc(S(=O)(=O)NCC(=O)O)cc1	-28
COc1ccc(S(=O)(=O)Nc2ccc3c(c2)CC(=O)N([C@@H](C)CO)C[C@H](C)[C@@H](CN(C)Cc2ccc(Oc4ccccc4)cc2)O3)cc1	64
Cc1noc(C)c1NC(=O)N(C)C[C@H]1Oc2ccc(NC(=O)C3CC3)cc2CC(=O)N([C@H](C)CO)C[C@H]1C	-6
C[C@@H]1CN([C@H](C)CO)C(=O)c2cccc(NC(=O)Nc3ccc(C(F)(F)F)cc3)c2O[C@H]1CN(C)Cc1ccc(Oc2ccccc2)cc1	71
COc1ccc(CN(C)C[C@@H]2Oc3ccc(NC(=O)Nc4ccc(C(F)(F)F)cc4)cc3CC(=O)N([C@H](C)CO)C[C@@H]2C)cc1	118*
Cc1ccc(S(=O)(=O)Nc2cccc3c2O[C@@H](CN(C)S(=O)(=O)c2ccc(C)cc2)[C@H](C)CN([C@@H](C)CO)C3=O)cc1	4
Cc1noc(C)c1NC(=O)N(C)C[C@@H]1Oc2c(NS(C)(=O)=O)cccc2C(=O)N([C@H](C)CO)C[C@@H]1C	16
Cc1cc(C)nc(NS(=O)(=O)c2ccc(NC(=O)c3ccccc3Cl)cc2)n1	3
CC(C)NC(=O)Nc1ccc2c(c1)CC(=O)N([C@@H](C)CO)C[C@H](C)[C@@H](CN(C)Cc1ccc(Oc3ccccc3)cc1)O2	26
CCc1ccc(CCC(=O)Nc2ccc(Cl)cc2Cl)o1	48
Cc1noc(C)c1NC(=O)Nc1cccc2c1O[C@H](CN(C)C(=O)NC(C)C)[C@@H](C)CN([C@H](C)CO)C2=O	-9
COc1ccc(NC(=O)C2CCC(=O)N2S(=O)(=O)c2ccc(C)cc2)c(OC)c1 (configuration not stated)	33
OCCNc1nc2ccc(Cl)cc2[nH]1	-8
CS(=O)(=O)N(CC(=O)Nc1ccccc1Br)c1ccccc1F	40
COc1cc(Br)cc(CNc2cc(C)on2)c1O	0
CC(C)=CCC1Cc2c(cc(O)c(C(=O)C(C)C)c2O)OC1(C)C (configuration not stated)	69
C[C@H]1CN([C@@H](C)CO)C(=O)Cc2cc(NS(C)(=O)=O)ccc2O[C@@H]1CN(C)C(=O)Nc1ccc2c(c1)OCO2	-15
C[C@H]1CN([C@@H](C)CO)C(=O)Cc2cc(NC(=O)NC3CCCCC3)ccc2O[C@@H]1CN(C)S(=O)(=O)c1ccccc1	16
Cc1ccc(S(=O)(=O)N(C)C[C@H]2Oc3ccc(NC(=O)NC4CCCCC4)cc3C(=O)N([C@H](C)CO)C[C@H]2C)cc1	15
